ClpP mod: qHTS Assay for Activators of ClpP; ATP-dependent Clp protease proteolytic subunit (Bacillus subtilis (strain 168)), P80244; purified B. subtilis ClpP, FRET peptide cleavage, 20 min; Potency, µM (top dose mostly 57.5 µM), for the others: at the top dose activity change, negative = active; 340,000 compounds, 1.9% hits; active = well fitted falling curve with a large enough effect; inconclusive = small, poorly fitted or top-dose-only effect; inactive = no such curve, though single readings can be large or run the other way; also: potency is read from the fitted curve at half-maximal effect; the source files actives as falling curves though it sought activators and does not explain the sign; nearly all actives have a fitted effect of over 65% in size; many hits overshoot -100%
Target sequence (P80244 whole entry, looked up): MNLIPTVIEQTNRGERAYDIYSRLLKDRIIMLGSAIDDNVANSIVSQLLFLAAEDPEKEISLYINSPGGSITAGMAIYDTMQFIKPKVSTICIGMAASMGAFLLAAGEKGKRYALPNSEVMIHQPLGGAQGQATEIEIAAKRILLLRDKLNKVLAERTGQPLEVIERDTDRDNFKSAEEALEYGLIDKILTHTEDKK
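FRET quenching reversal measured ClpP activation: 10 microg/mL B. subtilis ClpP at pH 8 with the FRET-FV decapeptide, read at 430 nm after 320 nm excitation. The 20-min minus 0-min signal was scaled between DMSO/no-enzyme wells and ADEP (5.8 microM final).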
Menin-MLL FL inh: qHTS Assay for Inhibitors Targeting the Menin-MLL Interaction in MLL Related Leukemias: Competition With Fluorescein Labeled MLL-derived Peptide; FP activity change, % at 61.4 µM; 290,000 tested, under 10 active; AID 1766, 2009; Fluorescence polarization, fluorescein-MLL peptide displacement from menin; inconclusive = falling polarisation curve, or a change in total fluorescence; inactive = total fluorescence flat and polarisation flat or rising; no compound was filed as active; the % refers to the polarisation; negative = inhibition;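 also: % of control where 0% means no effect; inhibitors lower the polarisation; unlabelled MLL peptide was the positive control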
Sfp PPTase inh: qHTS Assay for Inhibitors of Bacillus subtilis Sfp phosphopantetheinyl transferase (PPTase); 4'-phosphopantetheinyl transferase ffp (Bacillus subtilis), Q9F4F7; Biochemical Sfp PPTase activity, qHTS; Potency, µM, for inactives: max response, negative = inhibition, hits mostly inhibitors; 310,000 compounds, 3.5% hits; AID 1490, 2009; active = well fitted inhibition curve with a large enough effect; inconclusive = small, poorly fitted or top-dose-only effect, or another doubt; inactive = no such curve, though single readings can be large or run the other way;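 also: the enzyme is Sfp with the accession as filed and its product quenches rhodamine fluorescence; potency is read from the fitted curve at half-maximal effect; 0% = enzyme reaction without inhibitor and -100% = no enzyme wells; top concentration of the series not given in the record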
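With Hepes-Na pH 7.6 buffer containing 10 mM MgCl2, Sfp (15 nM) modified BHQ-2-YbbR (12.5 uM) using rhodamine-CoA (5 uM). Two reads 30 minutes apart at 525/598 nm yielded each well's rate.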
gsp agonist: qHTS for Agonist of gsp, the Etiologic Mutation Responsible for Fibrous Dysplasia/McCune-Albright Syndrome: qHTS. AID 624287, 2012. 340,000 compounds, 0.13% hits. Potency, µM (series often up to 76.9 µM), for inactives: at the highest dose activation (cAMP increase), usual class: activators. gsp mutant cells, cAMP HTRF, 30 min; control for the full effect not named in the record; active = well fitted activation curve with a large enough effect; inconclusive = small, poorly fitted or top-dose-only effect, or another doubt; inactive = no such curve, though single readings can be large or run the other way; cell line not stated here;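 also: phosphodiesterase inhibitor Ro 20-1724 added with compounds to block cAMP breakdown; potency is read from the fitted curve at half-maximal effect; nearly all actives have a fitted effect of over 60% in size; about a fifth of the inactives were tested at one dose only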
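Cells in DMEM/10% FBS with G418 were pretreated with compounds in DMSO plus […] (300 uM stock) for 30 min at 37C. cAMP was measured by HTRF (cAMP-d2 plus anti-cAMP antibody-K) after 30 min at room temperature.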
D2 PAM: Beta-Arrestin HTS for Positive Allosteric Modulators of the Human D2 Dopamine Receptor: Potentiators | D(2) dopamine receptor (Homo sapiens), P14416 | DiscoveRx D2 beta-arrestin cells, luminescence, 90 min; 100% = 57 uM dopamine signal | potentiation, % (no concentration beside the values) | 360,000 compounds, 0.23% hits | AID 624464, 2012; active = potentiation of 50% or more; inconclusive = 30% to 50%; inactive = 30% or less;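 also: compound concentration not given in the record; tested on top of an EC20 dose of dopamine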
Target sequence (P14416 whole entry, looked up): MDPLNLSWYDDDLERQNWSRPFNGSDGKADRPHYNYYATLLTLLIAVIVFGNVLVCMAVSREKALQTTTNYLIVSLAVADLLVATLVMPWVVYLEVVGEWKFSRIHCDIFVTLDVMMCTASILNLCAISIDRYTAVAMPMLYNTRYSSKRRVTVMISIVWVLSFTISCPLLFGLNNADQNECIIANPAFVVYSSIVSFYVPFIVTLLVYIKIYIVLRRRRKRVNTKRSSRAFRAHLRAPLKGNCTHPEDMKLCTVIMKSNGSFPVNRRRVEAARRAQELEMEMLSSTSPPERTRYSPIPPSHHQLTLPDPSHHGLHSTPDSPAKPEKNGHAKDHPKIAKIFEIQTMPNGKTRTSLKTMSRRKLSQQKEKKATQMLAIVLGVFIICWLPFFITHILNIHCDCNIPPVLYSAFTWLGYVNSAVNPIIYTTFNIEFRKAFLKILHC
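D2 cells co-treated with compound plus 50 nM dopamine (EC20) for 90 min at 37 deg C to detect potentiation. Beta-arrestin recruitment was read as enzyme-fragment luminescence after 1 h at ambient temperature. Full response was set by 57 uM dopamine.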
gsp antag: qHTS for Antagonists of gsp, the Etiologic Mutation Responsible for Fibrous Dysplasia/McCune-Albright Syndrome: qHTS; 340,000 compounds, 0.4% hits; gsp-mutant cells, cAMP HTRF, 30 min; control for the full effect not named in the record; AID 624288, 2012; Potency, µM (highest dose often 76.9 µM), inactives show at the highest dose activity change, negative = inhibition, most hits filed as inhibitors; active = falling curve of any shape with a large fitted effect; inconclusive = falling curve, mostly with a smaller effect; inactive = flat or rising curve; cell line not stated here;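 also: intracellular cAMP measured with PDE inhibitor Ro 20-1724 present during compound exposure; potency is read from the fitted curve at half-maximal effect; % is scaled to controls: 0 for no effect and ±100 for the full control effect; nearly all actives have a fitted effect of over 65% in size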
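HTRF cAMP read-out (cAMP-d2 plus anti-cAMP antibody-K in lysis buffer, 30 min RT). Before lysis, cells are exposed to compounds with […] for 30 min at 37C in DPBS containing Ca/Mg, BSA and Tween 20.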
TRPV1 potentiator: HTS Assay for Compounds that Act as Potentiators of the Vanilloid Receptor 1; potentiation, % at 8.33 µM; 320,000 compounds, 0.02% hits; TRPV1-expressing cells, Fluo-8 calcium influx, capsaicin EC20 potentiation; host cell line not named in the record; control for the full effect not named in the record; Transient receptor potential cation channel subfamily V member 1 (Homo sapiens), Q8NER1; AID 540277, 2011; active means potentiation above 80%; inconclusive means 30% to 80%; inactive means below 30%; also: 0% is about no effect
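Cells expressing TRPV1 were dye-loaded with Fluo-8 and read kinetically: 10 s baseline, 3 min after compound (agonist portion), then 2 min after EC20 capsaicin (allosteric enhancer portion). Calcium-bound dye fluorescence at 480/520 nm.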
* = called active by the depositor; ? = inconclusive; / = not tested or not shown; [ ] = another dose, or the depositor's remark.

Every second line gives: TRPV1 potentiator	ClpP mod	Menin-MLL FL inh	Sfp PPTase inh	gsp antag	gsp agonist	D2 PAM
CCOc1cc(/C=N/O)ccc1OCc1ccc(F)cc1
    -1	-3.3%	4.9	-4%	18%	1%	-6
Cc1ccc(NC(=O)CN2C(=O)NC3(CCCC3)C2=O)c(Cl)c1
    15	/	3.0	-4%	7%	-7%	-4
CCOC(=O)C1(CC2CC2)CCN(Cc2cc(Cl)c(O)c(OC)c2)CC1
    -6	/	-0.9	8%	/	17%[15.4 µM]	-11
O=C(Nc1ccc2oc(-c3ccccc3F)nc2c1)c1ccco1
    -12	/	-0.4	2%	-25%	17%	-6
Cc1nn2c(-c3ccc(Cl)cc3)ccnc2c1-c1ccccc1
    -4	-17%	2.9	-5%	7%	-38%[inhibitor]	-9
COc1cc(NC(=O)CCl)ccc(=O)c1
    /	-4.7%	/	/	/	-70%[inhibitor]	-12
CN(Cc1cccc(F)c1)C(=O)c1ccccc1Sc1ccccc1C#N
    -2	-6.4%	/	-7%	-23%	-2%[15.4 µM]	-28
CCn1c(N2CCN(S(=O)(=O)c3ccc(Cl)cc3)CC2)nc2ccccc21
    -5	/	-3.8	3%	32µM*	-8%[15.4 µM]	0
c1ccc(OCCCn2nnc(-c3ccncc3)n2)cc1
    0	0.8%	-2.9	-1%	-2%	-2%	8
CC1(C)CC(=O)C2=C(C1)OC(N)=C(C#N)C2c1ccccc1 (stereo not given)
    -1	-0.6%	6.5	9%	13%	10%	-3
O=C(Nc1ccccc1)[C@@H]1CCCN1S(=O)(=O)c1ccc(Cl)cc1
    /	0.5%	/	/	11%	6%[15.4 µM]	-20
Cc1c(C)n2c(SCC(=O)N3CCN(c4ccccc4)CC3)nnc2[nH]c1=O
    -1	-26%	/	/	11%	-4%	4
COc1ccc(S(=O)(=O)N2CCCCC2)cc1NC(=O)CCc1nc2ccccc2c(=O)[nH]1
    28	2.0%	/	/	2%	?	-16
Nc1nc(NCc2ccco2)nc(N2CCCCC2)c1[N+](=O)[O-]
    -1	0.4%	/	2%	-4%	-8%[15.4 µM]	-5
Cc1cccc(NC(=O)c2ccc([N+](=O)[O-])o2)n1
    -21	9.2%	-5.7	1%	4%	-37%[inhibitor]	?
C(/C=C/C=C/Nc1ccccc1)=Nc1ccccc1
    2	-5.6%	1.1	6%	3%	-21%	5
CCOC(=O)c1c(C)nc(-c2ccccc2)nc1NC(=O)CC
    -10	-1.7%	2.3	12%	-3%	-16%	-6
COc1ccc(-c2cc3nc4c(c(=O)n3[nH]2)CCC4)cc1
    4	22µM*	-0.2	16%	-9%	11%	2
Cc1ccc(COC(=O)c2cccc(S(=O)(=O)N3CCCCC3)c2)cc1
    9	-2.6%	/	/	-4%	18%	-20
CC(=O)OCC[n+]1c(C)n(-c2ccccc2)c2ccc(Cl)cc21
    0	/	-1.0	4%	6%	-28%	-8
COc1ccc(-c2noc(CCC(=O)NCC3CCCO3)n2)cc1 (stereo not given)
    -3	-1.5%	-2.1	-2%	-9%	16%[15.4 µM]	-9
Cc1ccc(S(=O)(=O)NCCC(=O)OCc2ccc([N+](=O)[O-])cc2)cc1C
    -13	-1.7%	/	/	-20%	?	0
Cc1cc(C)cc(NC(=O)CSc2nnc(-c3cc(C)[nH]n3)n2N)c1
    0	0.9%	/	1%	4%	-37%	-8
NC(=S)NNc1cccc2cccnc12
    3	-1.2%	-0.2	3.2µM*	-1%	1%[15.4 µM]	?
Cn1c(SCc2cccc(Cl)c2)nc(C(F)(F)F)cc1=O
    18	0.1%	3.9	2%	?	?	-3
CCCCN1CC(=O)N2[C@H]3c4ccc(OC)cc4OC[C@@H]3[C@H](c3ccccc3)[C@]2(C)C1=O
    -15	-5.2%	/	/	-13%	-8%	-11
COC(=O)c1ccc(C)c(NS(=O)(=O)c2ccc(C)c([N+](=O)[O-])c2)c1
    -7	-1.2%	0.9	1%	-8%	-16%	-6
Cc1ccc(C2=NN(C3=NN=C(N)Cc4ncnn43)C(O)(C(F)(F)F)C2)cc1 (stereo not given)
    5	3.9%	2.5	27%	5%	-11%	3
O=C(c1ccco1)N1CCN(Cc2cc(=O)c(OCc3ccccc3Cl)co2)CC1
    -5	/	/	/	-9%	-10%[15.4 µM]	4
Cc1cccc(C)c1NC(=O)Nc1ccccc1-n1ccnc1
    -3	/	-2.9	8%	3%	-36%[inhibitor]	-5

Carrying on.
Every second line gives: TRPV1 potentiator	ClpP mod	Menin-MLL FL inh	Sfp PPTase inh	gsp antag	gsp agonist	D2 PAM
CCOc1c2ccc(C(=O)NCc3ccc(C)cc3)cc2nn1CCOC
    11	4.1%	3.9	11%	2%	/	-2
CCOc1ccc(CNC(=O)CCn2c(=O)oc3ccccc32)cc1
    -4	-2.5%	2.7	5%	-8%	-1%	-15
Cc1cc(C)cc(OCC(=O)N(C)CC(=O)Nc2ccc(Cl)c(C(F)(F)F)c2)c1
    14	0.3%	/	/	-10%	10%	-5
CCN(CC(=O)NCc1cccs1)C(=O)c1cccc(Cl)c1
    /	-3.5%	/	/	10%	8%	-4
CC(C)(C)c1ccc(C(CC(=O)O)NC(=O)Cc2ccc(Cl)cc2)cc1 (stereo not given)
    -12	2.0%	-0.7	3%	-15%	24%	4
Cn1c(-c2cccc([N+](=O)[O-])c2)cnc1NCc1cccc(F)c1
    8	0.1%	-4.0	-24%	-14%	6%	-63
CCC(=O)Nc1ccc2c(c1)nc(CCN1CCN(c3ccccn3)CC1)n2C
    -4	/	6.8	3%	-8%	12%	-1
Fc1ccc(OCCOCCNCC2CCCO2)cc1 (stereo not given)
    24	-3.0%	7.5	14%	10%	1%	-20
Nc1ncnc2c1ncn2CCc1ccccc1
    -2	/	1.2	12%	10%	10%[15.4 µM]	-2
Cc1noc(C)c1S(=O)(=O)N(C)C[C@H]1Oc2ccc(NS(=O)(=O)c3cn(C)cn3)cc2C(=O)N([C@H](C)CO)C[C@@H]1C
    /	-8.8%	/	/	6%	/	2
CCOCCCNC(=S)N(CCCN(C)C)Cc1cc2cc3c(cc2[nH]c1=O)OCCO3
    6	4.2%	3.6	6%	5%	6%	-5
CC(CCc1ccccc1)NC(=O)/C=C/c1ccccc1 (stereo not given)
    13	-1.6%	4.0	11%	-7%	-43%[inhibitor]	-33
CCn1cc(S(=O)(=O)Nc2nc3ccc(OC)cc3s2)cn1
    25	-3.0%	/	11%	-9%	8%	-27
Cc1cc(C)n(CC(O)COc2ccc(F)cc2)n1 (stereo not given)
    8	-0.4%	0.1	11%	13%	-23%	2
CCCC(C)C(=O)Nc1ccccc1C(=O)OCC (stereo not given)
    -16	-24%	3.7	11%	2%[15.4 µM]	15%	-10
CCCn1c(C2CC(=O)N(c3ccc(C)cc3)C2)nc2ccccc21 (stereo not given)
    -4	-2.1%	-1.2	6%	-7%	7%	7
C=CCN1C(=O)c2ccc(C(=O)N3CCN(S(=O)(=O)c4ccccc4Br)CC3)cc2C1=O
    2	/	/	/	-18%	11%[15.4 µM]	4
Cn1cnc(S(=O)(=O)Nc2ccccc2N2CCOCC2)c1
    ?	-1.5%	4.1	-3%	8%	-6%[15.4 µM]	-6
COc1cc(N)c(Cl)cc1C(=O)OCC(=O)NCC1CCCCC1
    /	/	/	/	1%	?	-2
COc1ccc(NC2CC(=O)N(C)C2=O)cc1 (stereo not given)
    -7	-1.0%	2.0	0%	7%	0%	3
COc1cccc(-c2csc(NC(=O)Oc3ccccc3)n2)c1
    24	-0.4%	2.7	-2%	5%	14%	8
Cc1cc(C)nc(SCC(=O)N/N=C/c2cccs2)n1
    -3	-0.8%	/	1%	-1%	13%[15.4 µM]	-6
Nc1cc(N)nc(SCC(=O)NCc2ccco2)n1
    -4	/	-4.2	10%	8%	-9%	4
COc1ccc(S(=O)(=O)NC(C)C)cc1C(=O)NC1CCCCC1
    1	2.8%	2.5	9%	12%	1%	4
CCOC(=O)c1cc2c(nc1N)CC(C)(C)OC2
    1	?	3.2	11%	11%	4%	4
O=C(CSc1nnc(CNC(=O)c2c(F)cccc2Cl)o1)Nc1ccc2c(c1)OCCO2
    11	2.1%	0.7	9%	10%	1%	9
Cc1nc(C)c2c(=O)cc(-c3ccccc3)[nH]c2n1
    -3	-21%	2.5	2%	14%	?	-5
CN(/N=C/c1ccncc1)C1=NS(=O)(=O)c2ccccc21
    10	3.6%	2.5	7%	4%	21%	0
CCN(CC)CCOC(=O)c1ccc(NC(=O)C(C)NC(=O)C23CC4CC(CC(C4)C2)C3)cc1 (stereo not given)
    7	-0.8%	7.3	12%	12%	5%	-24
O=C(NCc1ccccn1)c1ccccc1OCc1ccc(Cl)cc1Cl
    -14	-0.3%	/	/	-3%	-53%[inhibitor]	1
Cc1cccc(Nc2nnc(SCC(=O)NC3CCCc4ccccc43)s2)c1C (stereo not given)
    4	-6.3%	0.1	0%	-14%	?	-17
CCC1CCCCN1C(=O)COc1ccc2c3c(c(=O)oc2c1)CCC3 (stereo not given)
    5	28µM*	/	/	2%	2%[15.4 µM]	-6
CC(=O)NC1C(=O)N(CC(C)C)c2ccccc21 (stereo not given)
    -8	-5.5%	-0.4	22%	3%	-63%[inhibitor]	-1

Screening results deposited in PubChem BioAssay by National Center for Advancing Translational Sciences (NCATS).
